Screens as filed in PubChem.
D2 ag: human D2 receptor agonism in beta-arrestin assay; DiscoveRx PathHunter D2 beta-arrestin, luminescence, 90 min; 100% = 57 uM dopamine signal; AID 624465; activation, % (test concentration not listed); 0.084% of 360,000 active; in the data active = activation above about 40%; inconclusive = about 15% to 40%; inactive = below about 15%; also: compound concentration not given in the record; the text of the record calls up to 30% inactive
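DiscoveRx PathHunter D2 beta-arrestin cells (2,100/well) attached overnight, then compound-stimulated 90 min at 37 C in HBSS/10 mM HEPES/0.1% Tween-20 buffer; beta-galactosidase complementation read by luminescence after 1 h at ambient temperature. Dopamine 57 uM final (EC100) as control.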
Sfp inh: inhibitors of Bacillus subtilis Sfp phosphopantetheinyl transferase; Q9F4F7; 3.5% of 310,000 active; Biochemical Sfp PPTase activity, qHTS; Potency, µM, for inactives: max response, negative = inhibition, most hits filed as inhibitors; active = well fitted inhibition curve with a large enough effect; inconclusive = small, poorly fitted or top-dose-only effect, or another doubt; inactive = no such curve, though single readings can be large or run the other way;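 also: the enzyme is Sfp with the accession as filed and its product quenches rhodamine fluorescence; potency is read from the fitted curve at half-maximal effect; 0% = enzyme reaction without inhibitor and -100% = no enzyme wells; top concentration of the series not given in the record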
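Fluorescence-quenching assay with 15 nM Sfp, 5 uM rhodamine-CoA and 12.5 uM BHQ-2-labelled ybbR peptide in pH 7.6 Hepes/MgCl2 buffer. Enzyme was pre-incubated with compound for 15 min at room temperature. Rate was taken from the 30-min fluorescence change (525/598 nm).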
TRPV1 PAM: enhances activation of the human vanilloid receptor TRPV1; Q8NER1; TRPV1-expressing cells, Fluo-8 calcium influx, capsaicin EC20 potentiation; host cell line not named in the record; control for the full effect not named in the record; potentiation, % at 8.33 µM; 0.02% of 320,000 active; AID 540277; active means potentiation above 80%; inconclusive means 30% to 80%; inactive means below 30%; also: 0% is about no effect
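Cells expressing TRPV1 were dye-loaded with Fluo-8 and read kinetically: 10 s baseline, 3 min after compound (agonist portion), then 2 min after EC20 capsaicin (allosteric enhancer portion). Calcium-bound dye fluorescence at 480/520 nm.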
Six1-Eya2 inh: blocks human Six1 binding to Eya2 | 0.56% of 360,000 active | AlphaScreen GST-Six1/His-Eya2 binding, biochemical; stronger effect = lower value; control for the full effect not named in the record | AID 651725 | Q15475+O00167 | activity change, % (concentration not given with the values); in the data active = activity change below about -65%; inconclusive = about -30% to -65%; inactive = above about -30%; also: % is scaled to controls: 0 for no effect and ±100 for the full control effect
Target sequence (O00167 whole entry, looked up): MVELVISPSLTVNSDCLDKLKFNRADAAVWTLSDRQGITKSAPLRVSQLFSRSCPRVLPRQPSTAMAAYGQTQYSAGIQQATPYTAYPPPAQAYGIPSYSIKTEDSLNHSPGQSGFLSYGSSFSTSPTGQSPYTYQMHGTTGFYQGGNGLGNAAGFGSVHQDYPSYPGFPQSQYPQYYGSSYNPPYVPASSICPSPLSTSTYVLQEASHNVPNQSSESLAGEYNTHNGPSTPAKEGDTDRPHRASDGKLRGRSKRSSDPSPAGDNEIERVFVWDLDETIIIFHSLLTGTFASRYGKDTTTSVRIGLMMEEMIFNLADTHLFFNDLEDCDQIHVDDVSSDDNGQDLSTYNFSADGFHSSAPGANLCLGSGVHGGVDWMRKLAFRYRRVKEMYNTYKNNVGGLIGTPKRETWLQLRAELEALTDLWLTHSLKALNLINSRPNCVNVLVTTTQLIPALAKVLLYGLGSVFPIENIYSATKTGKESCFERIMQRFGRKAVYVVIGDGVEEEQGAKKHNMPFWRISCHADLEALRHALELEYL
Target sequence (Q15475 whole entry, looked up): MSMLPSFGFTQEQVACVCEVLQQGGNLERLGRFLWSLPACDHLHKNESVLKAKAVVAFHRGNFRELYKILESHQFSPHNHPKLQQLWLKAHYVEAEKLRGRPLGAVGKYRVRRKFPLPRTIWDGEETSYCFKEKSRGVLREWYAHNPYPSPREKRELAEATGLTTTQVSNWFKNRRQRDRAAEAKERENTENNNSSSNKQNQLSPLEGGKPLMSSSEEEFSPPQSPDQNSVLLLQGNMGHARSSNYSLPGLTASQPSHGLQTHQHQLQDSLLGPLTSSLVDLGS
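Six1/Eya2 binding was read as AlphaScreen signal after compounds were pinned into GST-Six1 plus His-tagged Eya2 (5X stock 250/500 nM) in pH 8.0 Tris/NaCl/TCEP buffer, beads added, then incubated 1 h, 37 C, dark.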
PINK1 modulator: changes PINK1 expression | PINK1 immunofluorescence, high-content cytometry, 24 h | Potency, µM (doses to about 76.6 µM), for inactives: at the top dose activation (PINK1 increase), usual class: activators | 0.2% of 410,000 active | AID 624263; active = well fitted activation curve with a large enough effect; inconclusive = small, poorly fitted or top-dose-only effect; inactive = flat fitted curve, though single readings scatter; cell line not stated here;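 also: potency is read from the fitted curve at half-maximal effect; % of control where 0% means no effect; nearly all actives have a fitted effect of over 65% in size; a mitochondrial uncoupler was the plate control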
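Measures PINK1 amount and localization on or inside mitochondria by immunofluorescence. Stable cells get compounds at 5 concentrations for 24 hours before fixation and staining; CCCP controls included.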
CtBP-E1A blk: inhibitors of CtBP/E1A interaction | AlphaScreen GST-E1A/His-CtBP binding, 1536-well; stronger effect = lower value; control for the full effect not named in the record | activity change, % (no concentration beside the values) | 0.49% of 340,000 active; in the data active means activity change below about -65%; inconclusive means about -30% to -65%; inactive means above about -30%; also: % is scaled to controls: 0 for no effect and ±100 for the full control effect; compound concentration not given in the record
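AlphaScreen with 125 nM GST-E1A and 125 nM His-CtBP (5X stocks) in Tris pH 8.0, 300 mM NaCl, BSA, Tween 20, TCEP. Compounds preincubated 2 h at 37 deg C, then glutathione donor/nickel acceptor beads added for 1 h at 37 deg C in dark.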
D2 PAM: positive allosteric modulators of human D2 dopamine receptor. P14416. DiscoveRx D2 beta-arrestin cells, luminescence, 90 min; 100% = 57 uM dopamine signal. potentiation, % (no concentration beside the values). 0.23% of 360,000 active. AID 624464; active = potentiation of 50% or more; inconclusive = 30% to 50%; inactive = 30% or less;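 also: compound concentration not given in the record; tested on top of an EC20 dose of dopamine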
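PathHunter D2 cells, attached overnight at 37 deg C, received compound in DMSO plus dopamine at EC20 (50 nM final) for 90 min at 37 deg C. Beta-arrestin recruitment was read as luminescence after 1 h with detection reagent at ambient temperature.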
Active calls of the source: *; ? = inconclusive; · = not tested or not shown; & = joins results of further samples; [ ] = dose if it differs, or a comment. Not a hit list, and some 3.7% of all compounds hit somewhere here.

SMILES | D2 ag | Sfp inh | TRPV1 PAM | Six1-Eya2 inh | PINK1 modulator | CtBP-E1A blk | D2 PAM
COc1cccc(-c2noc(C(C)n3nc(C)c([N+](=O)[O-])c3C)n2)c1 (centres undefined) | 0.8 | 7% | 5 | 3 | 0.2% | 3 | 10
O=C(COc1ccccc1)N1CCN(S(=O)(=O)c2cccs2)CC1 | 1.9 | 6% | 1 | 2 | 0.9%[38.3 µM] | -4 | 0
CCOC(=O)Nc1ccc2c(c1)C(=NO)c1ccccc1-2 | -1.7 | · | · | -14 | -5.6% | -5 | -9
CN(C)S(=O)(=O)c1cccc(COC(=O)CN2C(=O)NC3(CCCC3)C2=O)c1 | -2.5 | 18% | 6 | -7 | -0.5% | 0 | -9
O=C(Cn1c(=O)c2cccn2c2ccccc21)NCCCN1CCCCC1 | -3.9 | 19% | -19 | -3 | -1.1% | 3 | -7
CCOC(=O)CSc1nc2ccccc2n2cnnc12 | 0.2 | 56µM* | 5 | -2 | -1.6%[38.3 µM] | -8 | 0
Cc1cc(/C=C(\C#N)C(=O)N2CCOCC2)c(C)n1C1CCCC1 | -7.3 | -13% | -39 | 5 | 0.0% | · | -3
O=C(C1CC1c1ccccc1)N1CCOCC1 (centres undefined) | -1.1 | -4% | 22 | 4 | -1.1% | 1 | 20
COc1ccc(CN2CCNC(=O)C2CC(=O)N(C)Cc2ccncn2)c(OC)c1 (centres undefined) | -5.0 | -2% | 11 | 10 | -0.1% | · | -1
O=C(CCC(=O)N(CC(=O)NC1CCCC1)c1ccc(F)cc1)Nc1nccs1 | -2.0 | -17% | -5 | 10 | -1.1% | 5 | -5
COc1ccccc1CNC(=O)c1ccc(NS(=O)(=O)c2c(C)noc2C)cc1 | -1.7 | 16% | 8 | 5 | 1.5% | 7 | -6
CCOc1ccc(CC(=O)OCN2C(=O)c3ccccc3C2=O)cc1 | 0.3 | 89µM* | ? | 5 | -2.6% | 5 | -12
O=C(C[n+]1ccc(C(=O)NCCCO)cc1)c1cccc(Br)c1 | -2.5 | 23% | -6 | 7 | 1.3% | 8 | -10
CC(=O)c1c(C)oc2ccc(OCc3ccccc3)cc12 | 6.3 | -16% | 22 | 25 | -0.2% | 13 | -4
Cc1ccc(CNC(=O)C(Cc2ccccc2)NS(=O)(=O)c2ccc(Br)s2)cc1 (centres undefined) | 4.1 | 16% | -4 | -8 | ? | 5 | 0
COc1ccc(-n2nc(C(=O)NCC(=O)N3CCN(c4ccccn4)CC3)c3ccccc3c2=O)cc1OC | -3.8 | 26% | 15 | -4 | 1.7% | 3 | 18
CCC(C)NCc1ccc(C(=O)OC)o1 (centres undefined) | -4.0 | 15% | 0 | 6 | -2.0% | 11 | -12
CC1CN(S(=O)(=O)c2ccc(C(=O)N3CCc4ccccc43)cc2)CC(C)O1 (centres undefined) | -2.5 | · | 10 | -7 | 15% | 13 | -15
O=C(Cn1cc(SCc2cccc(Cl)c2)c2ccccc21)N1CCOCC1 | 0.1 | -16% | -2 | -9 | 2.0%&3.2% | -6 | 4
CCc1ccc(CNC(=O)C2CCC(=O)N(CCc3ccc(Cl)cc3)C2)nc1 (centres undefined) | -2.1 | -8% | -4 | 4 | 4.3% | 0 | -9
Cc1sc2ncnc(SCC(=O)N3c4ccccc4Sc4ccc(Cl)cc43)c2c1C | -0.5 | 0% | 3 | 1 | 0.1% | 4 | -13
CCC(=O)c1ccc(N2CCN(C(=O)Cc3ccccc3)CC2)c(F)c1 | 1.4 | -21% | -26 | -3 | 1.2% | 1 | -6
CCc1ccc(-c2nc(NC(=O)c3ccc(OCC(=O)Nc4ccc(F)cc4)c(OC)c3)sc2C)cc1 | 1.4 | 1% | 9 | -1 | 8.2% | -3 | 1
COc1ccc2c(c1)CCCC2=O | 0.7 | · | · | 5 | 2.6% | 4 | -1
CCN1CCc2nc(N)oc2CC1 | -0.9 | 2% | 17 | -3 | -0.3%&0.7% | 2 | 4
CSc1ncc(Cl)c(C(=O)Nc2ccccc2Br)n1 | -2.9 | 5% | -6 | 5 | -0.2% | · | -6
Cc1ccc(S(=O)(=O)N2CCOCC2)cc1C(=O)OCC(=O)Nc1ccc(Cl)cn1 | -2.1 | · | · | -9 | 6.1% | 0 | -16
O=C(C1=C(O)C(=O)N(CCN2CCOCC2)C1c1cccc(O)c1)c1cc2ccccc2o1 (centres undefined) | -1.9 | 12% | -6 | -3 | -1.8% | 6 | -7
COc1cc(C2c3cc4c(cc3OC(Nc3ccc(C(=O)O)cc3)C2C)OCO4)cc(OC)c1OC (centres undefined) | 12 | · | · | -9 | 4.0% | -1 | 8
COc1ccc(-n2nnnc2SCC(=O)Nc2ccc(OC)cc2OC)cc1 | 1.5 | 1% | -9 | -1 | -0.1% | 3 | 3
CCCOc1ccccc1/C=C1\SC(N2CCCCC2)=NC1=O | -1.1 | -12% | 5 | 4 | 0.4% | 2 | -16
Cc1cc(C)[n+](-c2ccc(C(C)C)cc2)c2[nH]c(=O)[nH]c(=O)c12 | 2.1 | 27% | -7 | 1 | 8.1% | 0 | 5
O=c1c2ccccc2nc(/C=C/c2cccc([N+](=O)[O-])c2)n1CCCO | -3.0 | · | · | -5 | -0.1% | -9 | -25
Cc1nc2c(OCc3ccc(C#N)cc3)cccn2c1N(C)Cc1cccs1 | 14 | · | · | 0 | 0.8% | -6 | -5
CC1Oc2ccccc2N(CC(=O)NC2CCCCC2)C1=O (centres undefined) | -3.7 | 10% | -5 | 6 | 1.0% | -1 | -3
CN1C[C@@H]2[C@@H]3C(=O)N(C)C(=O)[C@@H]3[C@](C)(C1=O)N2C(=O)c1ccccc1 | 0.3 | · | · | 3 | 0.5% | 7 | -7
CCCCn1c(N)c(N(CCC(C)C)C(=O)c2ccc(COc3ccccc3)o2)c(=O)[nH]c1=O | -2.8 | · | 11 | 1 | -1.3% | -2 | -1
Cc1ccc2cc(CN(Cc3ccco3)C(=O)C3CCCCC3)c(=O)[nH]c2c1C | -4.0 | 2% | -4 | -2 | 14% | 2 | -1
CCc1ccc(O)c(CNCCNCc2cc(CC)ccc2O)c1 | 0.8 | · | 8 | ? | 0.3% | · | -29
Cc1c(CCO)sc[n+]1CC(=O)OCCC12CC3CC(CC(C3)C1)C2 | -6.4 | 12% | 0 | 3 | -0.9% | 2 | -4
CC(C)Nc1nc(NCc2ccccc2)c2sccc2n1 | -5.7 | · | · | 12 | 2.3% | -24 | -12
Cc1ccc2nc(-c3ccc(SCC(=O)Nc4nc(C)cs4)nc3)[nH]c2c1 | 2.3 | 4% | 9 | 5 | ? | 7 | 25
O=c1c(-c2nnc(SCc3ccc(Cl)c(Cl)c3)o2)cccn1Cc1ccccc1 | 3.7 | 23% | 11 | 16 | 0.6% | 11 | -17
COC(=O)C1CCN(C2CN(C3CCCCC3)S(=O)(=O)C2)CC1 (centres undefined) | -5.6 | · | · | 6 | 0.0% | -3 | -7
COC(=O)Oc1ccc(/C=N/NC(=O)CN(c2ccccc2Cl)S(C)(=O)=O)cc1OC | -1.7 | 4% | -21 | ? | 3.3% | ? | 26
CCOC(=O)Cc1cc(=O)n2[nH]c(-c3ccccc3)c(-c3ccccc3)c2n1 | -5.1 | 5% | 5 | -9 | 1.7% | 0 | -6
OC(CN1CCN(c2cccc(C(F)(F)F)c2)CC1)c1c[nH]c2ccccc12 (centres undefined) | 1.1 | ? | 9 | -9 | 0.4% | -2 | -42
CCN1C(=O)CC(N2CCC(Nc3ccc(F)cc3)CC2)C1=O (centres undefined) | 1.1 | 23% | -1 | 9 | 0.3% | 3 | -11
COc1ccccc1-n1c(CNc2c(C)cccc2C)nnc1SCC(=O)N1CCOCC1 | -2.0 | 13% | 9 | 8 | -1.5% | 5 | 1
COc1ccccc1-c1cc(C(F)(F)F)nc(N2CCCC2)n1 | -3.0 | -14% | -7 | 70 | 13% | 30 | -5

Next section
SMILES | D2 ag | Sfp inh | TRPV1 PAM | Six1-Eya2 inh | PINK1 modulator | CtBP-E1A blk | D2 PAM
O=C(O)CCCC(=O)Nc1ccc(Oc2cccc(C(F)(F)F)c2)nc1 | -2.8 | 23% | -3 | 0 | 0.7% | 3 | -6
CCNc1nc(C)cc(COC)c1C#N | -3.3 | 13% | -9 | -1 | 0.4% | 6 | -17
COc1cc(-c2nc(C)c(C(C)=O)n2O)ccc1OCC(=O)Nc1ccc(Cl)cc1 | -3.4 | 13% | -5 | -10 | -0.6% | · | 10
O=C(COc1ccc(F)cc1)N(Cc1ccco1)C1CCS(=O)(=O)C1 (centres undefined) | -0.6 | 3% | 20 | -2 | -0.7% | -18 | -9
O=C(CC1C(=O)NCCN1Cc1c(F)cccc1Cl)NC1CCCCCC1 (centres undefined) | 0.4 | 22% | -10 | -15 | 1.2% | -25 | -14
O=C(CCNC(=O)c1ccc([N+](=O)[O-])cc1)NCCC1=CCCCC1 | 2.3 | · | 0 | 2 | 1.8% | 0 | 1
CC1(C)OC(=O)N(CC(=O)Nc2ccccc2)C1(C)O (centres undefined) | -3.9 | 15% | -10 | 4 | 0.6% | 5 | -5
CN1CCN(CC(=O)Nc2cccc(S(=O)(=O)N(C)c3ccccc3)c2)CC1 | -0.3 | · | -4 | 0 | 1.0% | 6 | -12
Nc1c(-c2ccc(F)cc2)cnn1C1CCS(=O)(=O)C1 (centres undefined) | -1.1 | 10% | 8 | 5 | 0.3% | -3 | -8
CCC1(C)Cc2c(sc3c2c(=O)n(C)c2nnc(SCc4ccc5c(c4)OCO5)n32)CO1 (centres undefined) | -1.4 | 10% | 13 | 2 | 13%[38.3 µM] | -2 | -8
